# Tg IFNy HTS = blocks Toxoplasma gondii growth in the presence of IFN-gamma; Toxoplasma gondii growth in IFN-gamma-treated host cells; hits give low values; reference of the scale not given here; activity change, negative = inhibition, %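 (about 20 µM by stock and volumes)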; 69,000 tested, 3.8% active; AID 1259416;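 active means below -70%; inconclusive means fit judged invalid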;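 further: host cells are HeLa cells infected with Toxoplasma gondii; parasite growth read as luciferase light; one replicate is shown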
# Starred values were filed as active, the others as inactive; i = inactive; u = inconclusive; & = joins results of further samples. This is a subset. The share of hits here may be higher or lower than overall.
SMILES,Tg IFNy HTS
COc1ccccc1CNC(=O)Cn1nc(C)c2sc(-c3ccccc3)nc2c1=O,14
Nc1ccc2nc(Cc3ccccc3)[nH]c2c1,253&159
O=C1NN=CC1CCCNC(=S)Nc1cccc(C(F)(F)F)c1 (stereo unspecified),13
COc1cncc(-c2ccc(O)cc2)c1,-29
O=C(COc1ccccc1)N1C[C@H]2CC=CC[C@H]2C1,6
CC(C)C(=O)NCC1CCN(Cc2cnc(-c3ccco3)nc2)C1 (stereo unspecified),3
CC1CCN(S(=O)(=O)c2ccc3c(c2)CCC(=O)N3CC(=O)NCc2ccccc2)CC1,-11
Cc1cc2ncn(CCC(=O)NC(C)c3ccc(N4CCOCC4)cc3)c2cc1C (stereo unspecified),-7
CCOC(=O)CNC(=O)N1CCC2(CC1)Nc1cc(F)ccc1-n1cccc12,204
O=C(NCCc1csc(-c2ccc(F)cc2)n1)C(=O)Nc1ccc(Cl)cc1,11
Cc1cccc(NC(=O)CN(Cc2ccco2)C(=O)c2ccc(Cl)cc2)c1,-25
Cc1nn(C)cc1NC(=O)CN1CCCCC1c1ccccn1 (stereo unspecified),-21
COc1cccc(-c2ccc3c(c2)[C@@H]2[C@@H](CCN2C(=O)c2ccccc2F)[C@@H](CO)N3C)c1,-68
CC(C)Nc1nc2c(cc1C(=O)N(C)C)CCN(C(=O)Nc1ccccc1)CC2,11
COCC1c2nnn(C)c2CCN1C(=O)Cc1cccs1 (stereo unspecified),i
Nc1nc2c(nc(Br)n2[C@@H]2O[C@@H]3COP(=O)(O)O[C@H]3[C@H]2O)c(=O)[nH]1,7
C=CCC(C)(C)CN1CCN(C)C2(CCN(C(=O)N(CC)CC)CC2)C1,9
COCCN1CCC2(CCN2Cc2csc(C)n2)C1 (stereo unspecified),11
CC(C)c1cc(C(=O)N2Cc3ccc(CN4CCN(C)CC4)cc3C2)c(O)cc1O,-59
O=C(O)CSCNC(=O)C12CC3CC(CC(C3)C1)C2,16

# 15 compounds already listed, arranged by length of the SMILES, ascending.
SMILES,Tg IFNy HTS
COc1cncc(-c2ccc(O)cc2)c1,-29
Nc1ccc2nc(Cc3ccccc3)[nH]c2c1,253&159
COCCN1CCC2(CCN2Cc2csc(C)n2)C1 (stereo unspecified),11
COCC1c2nnn(C)c2CCN1C(=O)Cc1cccs1 (stereo unspecified),i
Cc1nn(C)cc1NC(=O)CN1CCCCC1c1ccccn1 (stereo unspecified),-21
O=C(O)CSCNC(=O)C12CC3CC(CC(C3)C1)C2,16
O=C(COc1ccccc1)N1C[C@H]2CC=CC[C@H]2C1,6
O=C1NN=CC1CCCNC(=S)Nc1cccc(C(F)(F)F)c1 (stereo unspecified),13
CC(C)C(=O)NCC1CCN(Cc2cnc(-c3ccco3)nc2)C1 (stereo unspecified),3
Cc1cccc(NC(=O)CN(Cc2ccco2)C(=O)c2ccc(Cl)cc2)c1,-25
COc1ccccc1CNC(=O)Cn1nc(C)c2sc(-c3ccccc3)nc2c1=O,14
CC(C)Nc1nc2c(cc1C(=O)N(C)C)CCN(C(=O)Nc1ccccc1)CC2,11
CC(C)c1cc(C(=O)N2Cc3ccc(CN4CCN(C)CC4)cc3C2)c(O)cc1O,-59
CC1CCN(S(=O)(=O)c2ccc3c(c2)CCC(=O)N3CC(=O)NCc2ccccc2)CC1,-11
Nc1nc2c(nc(Br)n2[C@@H]2O[C@@H]3COP(=O)(O)O[C@H]3[C@H]2O)c(=O)[nH]1,7

# Next compounds:
SMILES,Tg IFNy HTS
Cc1ccsc1C(=O)N1CCC(C2(Cc3ccc(F)cc3)NC(=O)N(C3CCOC3)C2=O)CC1 (stereo unspecified),3
O=C1COC2(COCCN(CCO)C2)CN1c1ccsc1 (stereo unspecified),-45
Cc1ccc(C(=O)Nc2c(C(=O)NCc3ccccn3)[nH]c3ccc(C)cc23)cc1,-53
COc1ccc(N2CCCC3(CN(Cc4cncn4C)CCO3)C2)cc1 (stereo unspecified),-17
COc1ccccc1-c1cc(NC(=O)c2cccc(Cn3ccnc3C)c2)n(C)n1,-7
CC(C)(C)c1nc(CN2C[C@H]3C[C@H](O)[C@@H](O)C[C@H]3C2)no1,133
O=C(c1cccc(Cn2cccn2)c1)N1CCO[C@@H]2CCCC[C@H]21,6
O=C(c1cc(C2CC2)[nH]n1)N1C[C@@H]2C3CCC(CC3)[C@@H]2C1,-7
O=C(Cc1ccccn1)N1CCCC(n2nc(-c3cccs3)ccc2=O)C1 (stereo unspecified),-39
O=C(CCc1ccc(O)cc1)c1c(O)cc(O)cc1O[C@@H]1O[C@H](CO)[C@@H](O)[C@H](O)[C@@H]1O,3
N#CCC(=O)NCc1ccc(F)cc1F,-25
N#Cc1cc2c([nH]c1=O)CCCC2,-31
O=C1Nc2ccc3sc4ccccc4c3c2C1=O,2
O=C(Nc1cnn(-c2ncc(N3CCCCC3)cn2)c1)NC1CCCCC1,-44
CCOC(=O)c1c(C)oc2c1cc(NS(=O)(=O)c1ccccc1)c1ccccc12,-19
CN(c1ncccc1CNC(=O)c1cnc2c(c1)nnn2C)C1CCCCC1,-12
Cc1cc(C)n(Cc2nc(-c3ccc(NC(=O)c4cc(F)ccc4F)cc3)oc2C)n1,-81*
CN(C)Cc1cc(=O)n2c(n1)CN(C(=O)c1cccs1)CCC2,0
CCCCc1nn(-c2ccccc2C(F)(F)F)c(=O)n1Cc1ccc(-c2ccccc2S(=O)(=O)NC(=O)c2sccc2C)cc1,2&3
CC1N(CC2CC2)C(=O)COC12CCN(C(=O)c1ccc[nH]1)CC2 (stereo unspecified),10
Cn1cnnc1Sc1ccc(CN2CCCC(C(=O)c3ccc(Cl)cc3)C2)o1 (stereo unspecified),9
Cc1noc(C)c1CNC(=O)c1cccc(NC(=O)c2ccco2)c1C,7
O=C(c1cnccn1)N1CCC(F)(F)C2(CCN(c3ncccc3F)C2)C1 (stereo unspecified),-1
OCCSc1ccc(Cc2ccc(SCCO)cc2)cc1,36
CCN1CC2(CCN(C(=O)C3CCC(=O)N3)CC2)COc2ccccc2S1(=O)=O (stereo unspecified),10
COCC1CN(C(=O)c2cc(C)on2)Cc2ncn(CC3CC3)c21 (stereo unspecified),5
Cc1cccc(CN2CC[C@@H]3C(=O)N(c4ccsc4)CCO[C@@H]3C2)n1,-8
Cc1ccccc1NC(=O)CCNC(=O)c1cc2n(n1)CCCN(C)C2,-2
O=S1(=O)CC=C(Sc2ccccc2)C1,16
COc1cccc(N2CCN(C(=O)CC3Nc4c5ccccc5nc(=S)n4C3=O)CC2)c1 (stereo unspecified),8
CCCN1CCN(C(=O)c2nc(-c3cccc(F)c3)n3c2CCCCC3)CC1,4
Cc1ccc(OCCN(C)C)c(NC(=O)C2CC(=O)N(C(C)(C)C)C2)c1 (stereo unspecified),0
Cc1cccc(-c2nnc(-c3nc(N4CCc5ccccc54)c4ccccc4n3)o2)c1,57
CNC(=O)c1cc2c(nc1NC(C)C)CCN(CCc1ccccc1)CC2,5
CCOC(C)c1n[nH]c(=O)n1Cc1cccs1 (stereo unspecified),1
O=C(NCC1CC1)[C@@H]1[C@@H](CO)[C@@H]2Cn3c(ccc(-c4ccccc4F)c3=O)[C@H]1N2Cc1cncnc1,-8
CC1c2snnc2-c2cc(Cl)ccc2S1(=O)=O (stereo unspecified),-103*
Cc1nc2cc(Cl)c(NC(=O)c3ccccc3)cc2c(=O)n1Cc1ccccc1,-17
COc1ccc(-c2nn(C(=O)c3ccccc3)c(=S)o2)cc1,10
Cc1noc(-c2ccccc2OCC(=O)N2CCCN(c3ccccn3)CC2)n1,-2
COCC(=O)Nc1ccc2c(c1)CCC(=O)N2C,5
CCOC(=O)c1c(NC(=O)CC2c3ccccc3Oc3ccccc32)sc(C)c1C,-16
COC(=O)c1cc2n(n1)CCN(C(=O)Cn1c(C(C)C)nc3ccccc31)C2,3
CCc1nccn1CC(=O)Nc1ccc(Oc2ccc3c(c2)OCO3)cc1,u
C[C@@H]1CN([C@H](C)CO)C(=O)c2cccc(NC(=O)Nc3ccc(C(F)(F)F)cc3)c2O[C@H]1CN(C)S(=O)(=O)c1cn(C)cn1,11
Cc1ccc(N2CCN(C(=O)c3cn4c(n3)COCC4)CC2)cc1,446
Cc1nn(C)c(Cl)c1CN1CCC(c2ccnc(-c3ccncc3)c2)C1 (stereo unspecified),-6
COc1ccc(OC)c(S(=O)(=O)NCCc2sc(-c3ccc(F)cc3)nc2C)c1,69
CC1=C(C(=O)NCc2ccccc2Br)C2(CCN(Cc3ccccc3)CC2)OC1=O,-13
Cc1cc(C)c(C)c(S(=O)(=O)N2CCN3C(=O)CNC(=O)C3C2)c1C (stereo unspecified),-4
S=c1[nH]nc(Cc2ccccc2)n1-c1ccccc1,37
O=C(Nc1ccccc1F)c1cncc(NS(=O)(=O)c2ccc(F)cc2)c1,6
C/C=C/c1ccc([C@@H]2[C@@H](CNC(=O)C3CCC3)N(C(=O)NCCC)[C@H]2CO)cc1,11
COc1ccc(CC(=O)N2CCC3(CC2)Nc2ccccc2-n2cccc23)cc1,27
COCCN1CCc2nc(-c3cnn(C)c3)nc(NC3CC3)c2C1,78
CCCN1CCC2(CC1)NC(=O)N(C1CCN(C(=O)c3cc4c(C)cccc4[nH]3)C1)C2=O (stereo unspecified),-24
Cc1nc(Nc2ccc(S(N)(=O)=O)cc2)sc1C(=O)Nc1ccccc1,-4
CSc1nsc(SC)c1C(=O)Oc1ccccc1N1CCOCC1,10
COc1cccc2c1OCC(C(=O)NCc1noc(-c3ccc(Cl)cc3)n1)C2 (stereo unspecified),-39
Nc1cc(-c2cnc3ccccc3n2)c2cc[nH]c2n1,-90*
# Later entries:
SMILES,Tg IFNy HTS
O=C(Nc1ccc(N2CCCCC2)c(C(F)(F)F)c1)c1ccc(Cn2ccnc2)o1,-56
C=CCn1c(=O)c(C(=O)Nc2ccc(C)cc2)c(O)c2ccccc21,-2
C=CCc1c(C)[nH]c2ccc(NC(=O)c3cnc(SC)nc3)cc2c1=O,-51
O=C(Cn1ncc2c(N3CCCCCC3)ncnc21)NCc1cccc(Cl)c1,-5
COc1ccc(N2CCN(C(=O)c3cncc(NS(=O)(=O)c4ccc(NC(C)=O)cc4)c3)CC2)cc1,3
Cc1nccc([C@@H]2C[C@H]3CCN(C(=O)c4cnccn4)C[C@@H]3O2)n1,27
CCCCOc1ccc(CNC(=O)c2ccc(-c3nc(CN4CCc5ccccc54)c(C)o3)cc2)cc1,-94*
CCOc1ccc(C(NC(C)=O)c2ccc(OC)c(OC)c2)cc1 (stereo unspecified),13
CS(=O)(=O)Cc1ccc(N2CC(c3ccncc3)C2)nc1,1
COc1ccccc1N1CC(NC(=O)c2c(C)oc3c2CCCC3)CC1=O (stereo unspecified),1
CC(C)NC(=O)N1[C@@H](C#N)[C@@H](c2ccc(C#CC3CCCCC3)cc2)[C@@H]1CO,-2
CC(c1nccs1)N(C)C(=O)CCSc1ccc2c(c1)OCCO2 (stereo unspecified),4
CCS(=O)(=O)N1CCCc2c(-c3cccnc3)nn(C)c2C1,2
COCCC(=O)c1cc(-c2cn(Cc3cccnc3)c(C)n2)n2ccccc12,32
O=C(C1CCCCC1)N1[C@H](CO)[C@H]2c3ccccc3NC[C@H]21,-5
O=C(c1cccc2cc[nH]c12)N1CCOC(C(F)(F)F)C1 (stereo unspecified),-2
CCS(=O)(=O)CCn1c([N+](=O)[O-])cnc1C,17&7
Cc1ccc(NC(=O)CC(=O)NCc2ncc[nH]2)c(C)c1,18
CC1CCN(S(=O)(=O)c2ccc3c(ccc(=O)n3CC(=O)N3CCc4ccccc4C3)c2)CC1,i
Cc1ccc(F)cc1S(=O)(=O)N1CCC2(CC1)Nc1ccc(Cl)cc1-n1cccc12,13

# A second format for two compounds above.
molecule | Tg IFNy HTS
C=CCc1c(C)[nH]c2ccc(NC(=O)c3cnc(SC)nc3)cc2c1=O | -51
O=C(Cn1ncc2c(N3CCCCCC3)ncnc21)NCc1cccc(Cl)c1 | -5

# Later entries
SMILES,Tg IFNy HTS
O=C(CCN1CCCCC1)N[C@H]1CC[C@H](CC(=O)N2CCC(Cc3ccccc3)CC2)O[C@H]1CO,-36
CC(C)Cc1ncc2c(n1)CN(C(=O)c1ccno1)C2,1
CCc1nnc(NC(=O)CN2C[C@@H](C)N(Cc3ccco3)C[C@H]2C)s1,44
Cc1c(C(=O)O)sc2ncnc(N(C)CCc3cn[nH]c3)c12,4
COCCn1c2c(ccc1=O)CC(NCC1CCOC1)CC2 (stereo unspecified),-1
COc1ccc(-c2nc3c(s2)CN(C(=O)Nc2ccc(C)cc2)CC3)cc1OC,-42
Cc1ccc(C)c(NC(=O)Cn2c(=O)cc(C(=O)N3CCc4ccccc4C3)c3ccccc32)c1,-3
COCC1CN(C(=O)Cc2c[nH]c3ccccc23)CC12CCOCC2 (stereo unspecified),30
COCCc1ncc(-c2nccn2-c2ccc(C)cc2Cl)cn1,-1
O=S(=O)(NC1CCCCC1)c1ccc(N2CCOCC2)nc1,11
COc1ccc(Cl)cc1NC(=O)c1c(O)c2cccnc2n(-c2ccc(F)cc2)c1=O,18
Cc1ccccc1NC(=O)c1c(O)c2cccnc2n(-c2cccc(F)c2)c1=O,-94*
COc1ccc2c3c(n(C)c2c1)[C@H](CO)N(C(=O)Nc1ccc(F)cc1)CC31CCN(Cc2ccccn2)CC1,-18
O=C(O)CSCC(=O)NC(c1ccccc1)c1ccccc1,-58
CCn1c(CN2C[C@@H]3CC[C@@](O)(c4cnc(OC)nc4OC)[C@@H]3C2)nc2ccccc21,-85*
CCCn1nccc1C(=O)Nc1c(C)cnn1C(CC)CC,-35
CC(C)[C@H]1C/C=C\CCNC(=O)[C@@H](C)CC(=O)N1,-46
Cn1ccc2ccc(CCC(=O)N3CCCC3)cc21,14
C[C@@H]1CN([C@H](C)CO)C(=O)Cc2cc(NC(=O)Nc3ccc(F)cc3)ccc2O[C@H]1CN(C)S(C)(=O)=O,7
COCC(=O)N1CCn2c(COc3cccnc3)cnc2C1C (stereo unspecified),9
COc1cccc2c(C)nc(NC3=NCN(CCCN4CCOCC4)CN3)nc12,7
COc1cccc(C2CCCN2C(=O)c2ccc3nc(C(F)(F)F)[nH]c3c2)c1 (stereo unspecified),-28
CN1C[C@@H](NC(=O)C2CCCC2)C[C@H]1C(=O)NCc1cn2c(n1)SCC2,2
O=C(C[C@@H]1CC[C@@H](NC(=O)Nc2ccc(C(F)(F)F)cc2)[C@H](CO)O1)NCc1cccc(F)c1,-57
CC(C)c1ccc(S(=O)(=O)NCC(c2cccnc2)c2c[nH]c3ccccc23)cc1 (stereo unspecified),-41
